# Source: PubChem BioAssay (several laboratories)
# Mtb hypoxia rep – PubChem AID 1159583. M. tuberculosis hypoxia-regulated fluorescent reporter, fluorescence. fluorescence inhibition, % (no concentration beside the values). 300,000 compounds, 0.1% hits;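 active means 35 to 45% if threefold the growth effect, above 45% if 1.5-fold the growth effect; inactive means the rest, general growth blockers included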;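 further: wells of about 50 µL received 100 nL stock; 0% = vehicle wells and 100% = reference inhibitor wells; whole bacteria with a GFP reporter of the hypoxia response; strong numbers were not always called active; many hits fall short of the cut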
# Sa RN4220 lethal – growth inhibition of S. aureus RN4220, primary screen, OD600; 330,000 compounds, 0.33% hits; inhibition, % (no concentration beside the values); 16 h;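 active means z-score of -3 or lower and OD600 up to 0.18 on both plates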;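 further: plate controls were untreated cells for no effect and reference antibiotic for full effect; stock transfer was 100 nL into about 80 µL; one replicate is shown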
# PrP UTR inh – inhibition of PrP 5' UTR reporter expression. 340,000 compounds, 0.35% hits. cell-based PrP 5' UTR mRNA reporter, plate reader. inhibition, % (test concentration not listed). AID 488862, 2010;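 active means every replicate at 50% or more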;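 further: 0 = median of the neutral control wells; tested in H4 reporter cells; numbers are from one replicate; inactives centre near -14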
# Sa ugtP lethal – growth inhibition of ugtP-null S. aureus, primary screen, RN4220 ugtP deletion, OD600 | 16 h; some inactives read as strong as hits | growth inhibition, % (test concentration not listed) | 330,000 compounds, 0.54% hits;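 active means z-score under -3 and OD600 up to 0.15 on both plates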;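 further: plate controls were untreated wells for no effect and antibiotic for full effect; wells of about 80 µL received 100 nL stock; the first replicate is given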
# Autofluor counter – flagged as autofluorescent in microsphere protease counterscreen; AID 624483; compound autofluorescence counterscreen, microsphere flow cytometry; hits give high values; fluorescence intensity (concentration not given with the values); 360,000 compounds, 3.1% hits;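 active means at least 3 SD above the mean of all compounds, about 16000 in these data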;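 further: 100 nL of 1 mM stock went into each well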
# BJeLR lethal – MLPCN primary cell-based screen for lethality selective to Ras in HRASV12 cells | BJeLR (HRASV12) viability, CellTiter-Glo ATP luminescence, 48 h; reference of the scale not given here | inhibition, % (test concentration not listed) | 300,000 compounds, 0.17% hits;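 active means replicate mean above 50%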;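 further: 50 nL library stock added to about 25 µL; numbers are from one replicate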
# Mtb hypoxia rep growth – also measured in Mtb hypoxia rep; calls as there; growth inhibition, %; measured here: M. tuberculosis growth (absorbance);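 0% = vehicle and 100% = reference antibiotic; read after six days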
# An asterisk follows results filed as active; . = no result given; & = joins results of further samples.
# Abbreviations – A = Mtb hypoxia rep; B = Mtb hypoxia rep growth; C = Sa RN4220 lethal; D = PrP UTR inh; E = Sa ugtP lethal; F = Autofluor counter; G = BJeLR lethal
> COc1cccc(-c2nnc(SCC(=O)Nc3ccc(S(N)(=O)=O)cc3)n2C)c1
  A: 0; B: 12; C: 0.8; D: -21; E: 0; F: 9008; G: -10
> O=C(c1ccco1)N1CCN=C1SCc1ccc(F)cc1
  A: .; B: .; C: 0.0; D: -50; E: 10; F: 5812; G: 13
> CCOc1ccccc1OCC(=O)Nc1ccc(Cl)cc1Cl
  A: .; B: .; C: 1.3; D: -20; E: 10; F: 3441; G: 14
> Cc1c(NC(=O)c2cc(-c3ccc(F)cc3)on2)c(=O)n(-c2ccccc2)n1C
  A: 14; B: 4; C: 4.2; D: -26; E: 7; F: 4070; G: 1
> CCN(CC1CCCO1)C(=O)c1cc(COc2ccccc2SC)on1 (stereo not given)
  A: 6; B: 4; C: 3.4; D: -50; E: 3; F: 5058; G: 1
> CCO[C@@H]1OC(C(=O)N2CCOCC2)=C[C@H](c2ccccc2)[C@H]1CCCO
  A: 8; B: 6; C: -14; D: -7; E: -5; F: 3935; G: -15
> COc1ccc(OC)c(C2CC(=O)C3=C(C2)NC(=O)CC3c2ccc(O)c(OC)c2)c1 (stereo not given)
  A: .; B: .; C: 2.3; D: -23; E: -5; F: 2220; G: -4
> CCC(CC)NC(=O)CON=Cc1ccccc1OC(F)F
  A: 4; B: -4; C: 1.0; D: .; E: -2; F: .; G: .
> Cn1c(=O)c2c(nc(Oc3ccc4c(c3)OCO4)n2Cc2ccc(F)cc2)n(C)c1=O
  A: -5; B: 0; C: 5.6; D: 3; E: 3; F: 8933; G: 1
> COc1cc(CN2CCC(C(=O)N3CCN(c4ccccc4F)CC3)CC2)ccc1O
  A: 2; B: 10; C: 3.0; D: -20; E: 3; F: 23648*; G: -3
> COc1ccc(NC(=O)CN2C(=O)NC3(CCCC3)C2=O)c(OC)c1
  A: 10; B: 2; C: 2.3; D: -11; E: -1; F: 2834; G: 1
> COc1cc(C(=O)N(C)CCOc2ccccc2)ccc1OCC(=O)Nc1cccc(C(F)(F)F)c1
  A: 1; B: -5; C: -1.8; D: -17; E: -8; F: 6225; G: 9
> Cc1cccc(N(Cc2ccccc2F)S(C)(=O)=O)c1
  A: 21; B: 11; C: -11; D: -8; E: -1; F: 3194; G: -2
> CN(C)C(=O)C1(c2ccccc2)CCN(S(=O)(=O)c2ccccc2)CC1
  A: .; B: .; C: 5.9; D: 9; E: 5; F: 3620; G: 1
> COc1ccccc1N1CCN(S(=O)(=O)c2ccc3c(c2)NC(=O)CS3)CC1
  A: -6; B: 1; C: 0.3; D: 8; E: -1; F: 5876; G: 1
> COc1cc(C(=S)N2CCN(C(c3ccccc3)c3ccccc3)CC2)cc(OC)c1O
  A: 0; B: 11; C: -0.6; D: -34; E: 13; F: 4276; G: -2
> COC(=O)/C(=C/c1ccccc1)NC(=O)c1ccco1
  A: -5; B: 1; C: 2.2; D: -6; E: 6; F: 2178; G: -4
> CC(C)CCNC(=O)NC(=O)COc1ncnc2sccc12
  A: 3; B: 7; C: 5.7; D: -9; E: -1; F: 5709; G: -5
> CC1CCN(C(=O)c2ccc(SCc3ccccc3F)c([N+](=O)[O-])c2)CC1
  A: 13; B: 2; C: -0.4; D: -23; E: -2; F: 3008; G: 5
> O=C(NCCOc1ccccc1Cl)C(=O)c1c[nH]c2ccccc12
  A: -3; B: 2; C: 5.1; D: -25; E: 8; F: 4408; G: -2

# Rewritten tab-delimited: entries from further up
Molecule	Mtb hypoxia rep	Mtb hypoxia rep growth	Sa RN4220 lethal	PrP UTR inh	Sa ugtP lethal	Autofluor counter	BJeLR lethal
COc1cccc(-c2nnc(SCC(=O)Nc3ccc(S(N)(=O)=O)cc3)n2C)c1	0	12	0.8	-21	0	9008	-10
O=C(c1ccco1)N1CCN=C1SCc1ccc(F)cc1	.	.	0.0	-50	10	5812	13
CCOc1ccccc1OCC(=O)Nc1ccc(Cl)cc1Cl	.	.	1.3	-20	10	3441	14
Cc1c(NC(=O)c2cc(-c3ccc(F)cc3)on2)c(=O)n(-c2ccccc2)n1C	14	4	4.2	-26	7	4070	1
CCN(CC1CCCO1)C(=O)c1cc(COc2ccccc2SC)on1 (stereo not given)	6	4	3.4	-50	3	5058	1
CCO[C@@H]1OC(C(=O)N2CCOCC2)=C[C@H](c2ccccc2)[C@H]1CCCO	8	6	-14	-7	-5	3935	-15
COc1ccc(OC)c(C2CC(=O)C3=C(C2)NC(=O)CC3c2ccc(O)c(OC)c2)c1 (stereo not given)	.	.	2.3	-23	-5	2220	-4
CCC(CC)NC(=O)CON=Cc1ccccc1OC(F)F	4	-4	1.0	.	-2	.	.
Cn1c(=O)c2c(nc(Oc3ccc4c(c3)OCO4)n2Cc2ccc(F)cc2)n(C)c1=O	-5	0	5.6	3	3	8933	1
COc1cc(CN2CCC(C(=O)N3CCN(c4ccccc4F)CC3)CC2)ccc1O	2	10	3.0	-20	3	23648*	-3
COc1ccc(NC(=O)CN2C(=O)NC3(CCCC3)C2=O)c(OC)c1	10	2	2.3	-11	-1	2834	1

# The listing continues.
# Abbreviations – A = Mtb hypoxia rep; B = Mtb hypoxia rep growth; C = Sa RN4220 lethal; D = PrP UTR inh; E = Sa ugtP lethal; F = Autofluor counter; G = BJeLR lethal
> O=P1(Oc2ccccc2)OCCCS1 (stereo not given)
  A: 6; B: 11; C: 3.1; D: -9; E: 2; F: 5940; G: 8
> COc1cc(OC)cc(C(=O)Nc2c(C)nn(-c3ccccc3)c2C)c1
  A: 13; B: 12; C: 2.8; D: 0; E: 6; F: 3593; G: 9
> NC(=O)c1cc(C(=O)Cc2ccccc2)c[nH]1
  A: -1; B: -2; C: 19; D: -18; E: 41; F: 3220; G: -13
> Cc1cc(C)n2cc(CSc3ccc(Br)cc3)nc2n1
  A: -8; B: 13; C: -2.7; D: -20; E: 0; F: 4385; G: -9
> Cc1cccc(OCc2n[nH]c(=S)n2Cc2ccccc2)c1
  A: 6; B: 5; C: 6.9; D: -23; E: 10; F: 3341; G: 1
> Cc1ccc(S(=O)(=O)N2CCc3cc4c(cc3C2C)OCCCO4)cc1 (stereo not given)
  A: 5; B: 0; C: 8.9; D: -7; E: 14; F: 5899; G: 1
> CN=c1scc(-c2ccc(OC)cc2)n1N=C(C)c1cccnc1
  A: 2; B: 9; C: 14; D: .; E: 26; F: .; G: .
> COc1ccc(NC(=O)CSc2nnnn2-c2ccc(F)cc2)cc1
  A: 7; B: -1; C: -0.4; D: -14; E: 9; F: 4149; G: -14
> Cn1c(=O)c2c(n(Cc3ccccc3)c1=O)NC(=O)C2CC(=O)O (stereo not given)
  A: -1; B: 6; C: -0.5; D: -5; E: -2; F: 4507; G: -3
> CCOC(=O)C1(CCc2ccccc2)CCN(Cc2nccn2CC)CC1
  A: 11; B: 11; C: 1.6; D: -12; E: 1; F: 2436; G: 0
> CCCCNC(=O)NS(=O)(=O)c1ccc(C(=O)OC)o1
  A: .; B: .; C: 2.0; D: -13; E: -1; F: 2603; G: -1
> CN(C)S(=O)(=O)Nc1ccc2c(c1)Cc1ccccc1-2
  A: 2; B: 4; C: -1.5; D: -32; E: 6; F: 10906; G: -15
> CC(NC(=O)c1ncn(Cc2ccccc2)c1C(=O)NC(C)c1ccccc1)c1ccccc1 (stereo not given)
  A: 12&10; B: 10&9; C: -2.2&-0.3; D: .; E: 4&-8; F: .; G: .
> COC(=O)C1=CN(c2cccc(C)c2)C=C(C(=O)OC)C1c1cc(OC)c(O)c([N+](=O)[O-])c1
  A: 0; B: 6; C: 6.4; D: -30; E: 3; F: 22321*; G: -2
> COc1ccc(NC2=Nc3ccccc3CC2)cc1
  A: -12; B: 3; C: 0.7; D: -160; E: -7; F: 10588; G: 1
> CCn1c(SCC(=O)Nc2cccc(C)c2)nc2ccccc2c1=O
  A: 9; B: 6; C: 3.4; D: -23; E: 10; F: 4123; G: -12
> O=C(C1CCN(S(=O)(=O)c2cccc3cccnc23)CC1)N1CCN(Cc2ccccc2)CC1
  A: .; B: .; C: -3.4; D: -45; E: 3; F: 4335; G: .
> Cc1ccc(N(C)S(=O)(=O)c2c(C)noc2/C=C/N(C)C)cc1
  A: 6; B: 3; C: 1.2; D: -11; E: -1; F: 5182; G: 5
> COC(=O)C(CC(C)C)NC(=O)c1ccc(F)cc1 (stereo not given)
  A: 11; B: 4; C: 1.3; D: -23; E: 1; F: 13174; G: 3
> COc1cc(/C=N/NC2=NS(=O)(=O)c3ccccc32)ccc1OC(C)=O
  A: .; B: .; C: .; D: 1; E: .; F: 4151; G: -9

# (next part)
# Every second line gives: Mtb hypoxia rep, Mtb hypoxia rep growth, Sa RN4220 lethal, PrP UTR inh, Sa ugtP lethal, Autofluor counter, BJeLR lethal
CCCCC1NC(C(=O)O)CS1 (stereo not given)
  -2, -1, 7.4, -21, 24, 2983, 5
CC1=CC2=NC(=O)/C(=C\c3cc(C)n(-c4cccc(Cl)c4)c3C)C(=N)N2O1
  4, -3, 2.8, -16, -9, 6825, 0
CC(OC(=O)CCCNC(=O)c1ccc(Cl)cc1)C(=O)N(C)Cc1ccccc1 (stereo not given)
  4, 7, -1.3, 1, 8, 5639, -7
CC1CCCCC1NC(=O)c1ccc(S(=O)(=O)N2CCCC2)cc1 (stereo not given)
  ., ., 0.4, -6, 4, 4707, -3
CCOC(=O)c1cc2c(=O)n3cccc(C)c3nc2n(Cc2ccco2)c1=NC(=O)c1ccccc1
  9, 10, 22, -5&-16, -15, 3965&8168, -5
O=C(NC1(C(F)(F)F)NC(=O)N(c2ccccc2)C1=O)c1cccs1 (stereo not given)
  5, -5, 0.2, -16, 0, 9172, -4
CC(=O)N1CCc2c(sc(NC(=O)C3CCCN3S(=O)(=O)c3cccs3)c2C(N)=O)C1 (stereo not given)
  -1, -4, 2.8, -16, 5, 5865, 9
Cc1ccc(Nc2c([N+](=O)[O-])cc(C(=O)N3CC(=O)Nc4ccccc43)cc2[N+](=O)[O-])c(C)c1
  16, 9, -3.6, -19, -13, 2763, -3
CC(Sc1ncccn1)C(=O)NC1(C#N)CCCCC1 (stereo not given)
  8, 11, 1.2, -2, 3, 2881, .
CN(C)/C=C1\Cc2ccccc2C1=O
  -3, 1, 4.4, -29, 15, 4353, -2
O=C(NCC(=O)N1CCN(Cc2ccccc2)CC1)c1ccc(Br)o1
  7, 5, -1.1, -38, 6, 5406, 4
COc1ccc(Cl)cc1-c1n[nH]c(=S)n1C
  ., ., -1.2, -5, -4, 2699, -1
Cc1ccc(SC[C@H](Cc2ccccc2)N2CCN(CC(C)C)CCC2=O)cc1
  ., ., ., -22, ., 3733, -5
CCN(CC)CCCC(C)N=C(c1ccccc1)c1c(O)n(C)c(=O)n(C)c1=O (stereo not given)
  ., ., 1.5, -24, 5, 4432, -1
Cc1cccc(NC(=O)CCc2c(C)nn(-c3ccc(N4CCOCC4)nn3)c2C)c1
  10, 10, -2.1, -12, -2, 6136, 22
C=CCc1ccccc1OCCCCN1CCCC1
  13, 4, 2.9, -12, -3, 2967, 4
Cn1c(Cn2c(=O)sc3ccccc32)nnc1SCC(=O)NCc1ccc(F)cc1
  ., ., 2.0, -19, 4, 5997, .
O=C(Cc1c(F)cccc1Cl)N1CCN(C(=O)c2ccco2)CC1
  6, 4, 4.7, -3, 12, 10917, 0
CC(C)O/C(=N/S(=O)(=O)c1ccc(Cl)cc1)c1ccccc1
  -3, 2, 3.4, -16, 2, 4087, .
Cc1ccc(F)c([C@H]2C3C=CCC(c4ccccc4)C3C(=O)N2Cc2ccccc2)c1 (stereo not given in full)
  ., ., ., 10, ., 3751, -8
O=C(c1cccc(S(=O)(=O)N2CCN(c3ccc(F)cc3)CC2)c1)N1CCCC1
  6, 3, 2.6, -5, 5, 3249, .
Cc1ccc2c(c1)C1CN(C)CCC1N2C(=O)Cn1cnc2c1c(=O)n(C)c(=O)n2C (stereo not given)
  5, 6, 0.3, ., -2, ., .
COc1ccccc1C(=O)/C=C/c1ccc(N2CCCCC2)c([N+](=O)[O-])c1
  5, 10, 9.0, -65, 2, 1909, -16
Cc1cccc(N2CC(C(=O)NCCC3=CCCCC3)CC2=O)c1C (stereo not given)
  -7, -2, 3.2, -10, 2, 4264, 1
O=C(NCCc1ccccc1)c1cnn2c(C(F)F)cc(C3CC3)nc12
  ., ., -2.6, -5, -2, 2239, -5
Cc1nc2ccccn2c1C(=O)OCC#N
  7, 19, 5.2, -28, 5, 3455, 2
